# High-throughput results from PubChem BioAssay.
# PLK1 PBD inh = blocks phosphopeptide binding to human Plk1 polo box domain | P53350 | Plk1 PBD phosphopeptide binding, fluorescence polarization | inhibition, %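 (tested at about 20 µM)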 | hit rate 0.13% among 97,000 | AID 693; in the data active means inhibition above about 34%, passing the limit was not always enough
# PTPN22 inh 2 = blocks human PTPN22 phosphatase activity; inhibition, % at 2 µM; recombinant LYP catalytic domain, DiFMUP fluorescence; hit rate 0.21% among 96,000;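 active means inhibition at 2 µM at or above a set limit, the screen mean plus 3 SD, cut at about 24% in these data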;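 further: 0% = DMSO with enzyme and 100% = enzyme fully blocked by orthovanadate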
# PLK1 inh = blocks human PLK1 kinase activity. P53350. recombinant PLK1 kinase, TR-FRET peptide phosphorylation. inhibition, % at 10 µM. hit rate 0.53% among 97,000. AID 619;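 active means inhibition of 50% or more in the single-concentration screen; inactive means inhibition below 50%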;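 further: 0% = DMSO max control and 100% = H-89 dihydrochloride min control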
# EphB4 ephrin blk = EphB4-ephrin-B2 interaction antagonism | P54760 | EphB4 LBD / TNYL-RAW-Alexa532 peptide, fluorescence polarization | inhibition, % at 7 µM | hit rate 0.15% among 97,000 | AID 720;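 active means inhibition above the screen-wide mean inhibition plus 3 SD, cut at about 15% in these data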;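 further: 0% = DMSO wells and 100% = excess unlabeled TNYL-RAW peptide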
# HIV Rev-RRE inh = disrupts HIV-1 Rev binding to RRE RNA; P05866; Rev peptide-RRE RNA binding, FRET; inhibition, % at 8 µM; hit rate 0.79% among 97,000;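 active means inhibition above the screen-wide mean plus 3 SD, cut at about 35% in these data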;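 further: 0% = median DMSO wells and 100% = median Neomycin B control wells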
# Target sequence (P05866 whole entry, looked up): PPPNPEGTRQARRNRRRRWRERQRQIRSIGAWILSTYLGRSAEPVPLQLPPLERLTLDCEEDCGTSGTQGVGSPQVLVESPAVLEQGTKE
#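 assay system = Cy5-tagged RRE RNA duplex with fluorescein-tagged Rev peptide | incubation = 5 + 15 min at 25 °C | also added = labelled Rev peptide | measure = % inhibition of FRET ratio versus controls | benchmarks = DMSO wells as 0% and neomycin B wells as 100% inhibition | measured by = FRET fluorescence readout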
# LYP act = activators of human LYP (PTPN22) phosphatase | recombinant LYP, DiFMUP fluorescence; 0 = plate median, 100 = signal doubled | hit rate 0.11% among 96,000 | activation, % at 2 µM | Q9Y2R2;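 active means activation at 2 µM above a set limit, the mean plus 5 SD, cut at about 37% in these data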
# * marks the source's active call; other numbers are inactive results. Only part of the results is shown (hit frequency here may not be typical).
entry	PLK1 PBD inh	PTPN22 inh 2	PLK1 inh	EphB4 ephrin blk	HIV Rev-RRE inh	LYP act	molecule
1	17	9	-10	2	16	-5	Cc1ccc(NC(=O)c2sccc2SCc2cccc(C(F)(F)F)c2)cc1
2	7	0	-13	1	2	-1	Cc1ccc2nc(-c3ccc(Br)o3)oc(=O)c2c1
3	-8	5	12	10	8	-4	N#C/C(C(N)=O)=C1/CCc2ccccc2N1
4	-13	11	42	-2	4	-10	COCc1cc(C)nc(SCC(=O)c2ccc(O)c(O)c2)c1C#N
5	20	10	-5	2	4	-12	Cc1c(C(N)=O)c(N)c(C(=O)c2ccccc2)n1-c1ccccc1
6	10	13	-9	1	4	-11	O=C(Nc1cccc(-c2nc3ncccc3o2)c1)c1sc2cc(Cl)ccc2c1Cl
7	-4	1	-5	7	-10	1	COc1cccc(N=c2oc3ccc(OC)cc3cc2-c2nc3ccccc3[nH]2)c1
8	3	1	-36	-2	5	2	O=C(Nc1cccc(-c2nc3ncccc3o2)c1)c1sc2ccccc2c1Cl

# Of the compounds above, these contain a carbonyl joined to an NH by a bond outside any ring:
entry	PLK1 PBD inh	PTPN22 inh 2	PLK1 inh	EphB4 ephrin blk	HIV Rev-RRE inh	LYP act	molecule
1	17	9	-10	2	16	-5	Cc1ccc(NC(=O)c2sccc2SCc2cccc(C(F)(F)F)c2)cc1
3	-8	5	12	10	8	-4	N#C/C(C(N)=O)=C1/CCc2ccccc2N1
5	20	10	-5	2	4	-12	Cc1c(C(N)=O)c(N)c(C(=O)c2ccccc2)n1-c1ccccc1
6	10	13	-9	1	4	-11	O=C(Nc1cccc(-c2nc3ncccc3o2)c1)c1sc2cc(Cl)ccc2c1Cl
8	3	1	-36	-2	5	2	O=C(Nc1cccc(-c2nc3ncccc3o2)c1)c1sc2ccccc2c1Cl

# Part of the list above, reduced to PTPN22 inh 2:
entry	smiles	PTPN22 inh 2
4	COCc1cc(C)nc(SCC(=O)c2ccc(O)c(O)c2)c1C#N	11
5	Cc1c(C(N)=O)c(N)c(C(=O)c2ccccc2)n1-c1ccccc1	10
